Screening data as filed in PubChem BioAssay.
MLL AF4-AF9 inh: blocks AF4 peptide binding to human AF9. P42568. AlphaScreen, biotin-AF4 peptide binding to FLAG-AF9. inhibition, % at 10 µM. actives 0.47% (n = 350,000). AID 651704;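 active = every replicate reaching a set inhibition limit, whatever the replicate mean, cut at about 25% in these data; inconclusive = mean inhibition reaches that limit but some replicates miss it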;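 note: 0% = plate neutral control median and 100% = total signal loss; the record names both 10 and 1 µM as test concentration; the first replicate is given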
Target sequence (P42568 whole entry, looked up): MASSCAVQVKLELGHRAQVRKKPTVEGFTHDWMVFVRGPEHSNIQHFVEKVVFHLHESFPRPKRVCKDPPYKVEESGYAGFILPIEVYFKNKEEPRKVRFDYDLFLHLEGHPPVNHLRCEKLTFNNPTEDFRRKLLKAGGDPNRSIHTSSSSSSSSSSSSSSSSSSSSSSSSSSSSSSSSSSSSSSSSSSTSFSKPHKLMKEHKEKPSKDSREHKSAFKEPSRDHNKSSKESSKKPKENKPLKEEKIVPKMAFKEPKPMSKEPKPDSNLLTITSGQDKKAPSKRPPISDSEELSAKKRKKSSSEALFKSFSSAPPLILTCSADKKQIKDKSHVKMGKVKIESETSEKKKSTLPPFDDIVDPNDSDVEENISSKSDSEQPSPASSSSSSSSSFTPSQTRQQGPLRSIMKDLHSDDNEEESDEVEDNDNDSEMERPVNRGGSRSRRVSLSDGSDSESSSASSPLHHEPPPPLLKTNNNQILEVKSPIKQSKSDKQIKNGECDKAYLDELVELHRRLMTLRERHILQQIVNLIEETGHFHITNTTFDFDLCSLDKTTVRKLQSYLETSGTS
ALR H2O2 inh: blocks human ALR sulfhydryl oxidase activity | AID 485317 | purified ALR, DTT oxidation, H2O2 HRP-luminol luminescence | actives 3.8% (n = 290,000) | inhibition, % (test concentration not listed);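 active = mean and each replicate at 75% or more; inconclusive = only one of the two met; inactive = neither met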;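 note: stock transfer was 7.5 nL into about 7.5 µL; 0% = neutral wells and 100% = wells with inactivated enzyme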
Target sequence (P55789 whole entry, looked up): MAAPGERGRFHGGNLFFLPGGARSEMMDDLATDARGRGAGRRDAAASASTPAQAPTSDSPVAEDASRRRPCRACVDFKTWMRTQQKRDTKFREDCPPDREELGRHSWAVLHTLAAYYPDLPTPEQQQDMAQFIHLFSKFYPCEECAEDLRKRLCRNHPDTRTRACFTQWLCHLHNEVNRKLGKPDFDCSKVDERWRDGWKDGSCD
HNF4A DNA FP: change in binding of human HNF4 alpha to DNA; P41235; HNF4a-FITC DNA binding, fluorescence polarization, 1 h; activity change, % at 10 µM; actives 0.3% (n = 360,000); AID 1224865; in the data active = activity change above about 30%, passing the limit was not always enough;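 note: controls were the assay level and a saturating level of protein; the project sought stronger binding though the title names inhibitors; some compounds called inactive have numbers as strong as hits; positive values seem to mean higher polarization but the record does not say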
E coli growth: blocks Escherichia coli growth; AID 1053175; actives 0.21% (n = 330,000); OD600 absorbance (test concentration not listed); OD600, 23 h; active compounds read low;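 active = OD600 absorbance below the run mean of sample wells minus 3.6 SD, in any replicate, cut at about 0.56 in these data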;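 note: stock transfer was 300 nL into about 60 µL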
FGF22 binding: binders of recombinant human FGF22 by thermal shift | AID 651658 | SYPRO orange fluorescence; percent of sucrose octasulfate shift, DMSO zero | Q9HCT0 | calls only at 9.99 µM | actives 1.5% (n = 340,000);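 active = melting point raised past a set limit in the mean and every replicate; inconclusive = no clear call; three in four hits are not shown here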
Target sequence (Q9HCT0 whole entry, looked up): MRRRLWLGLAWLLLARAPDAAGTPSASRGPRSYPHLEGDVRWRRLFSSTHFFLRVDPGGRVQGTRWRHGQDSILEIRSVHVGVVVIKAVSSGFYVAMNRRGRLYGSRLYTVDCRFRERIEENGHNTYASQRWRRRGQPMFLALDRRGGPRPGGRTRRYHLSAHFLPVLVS
Ecoli rRNA inh: inhibits bacterial ribosomal RNA function over humanized ribosomes | actives 1.6% (n = 350,000) | E. coli WT GFP vs humanized-ribosome RFP mutants, fluorescence, 24 h; active compounds read low; DMSO median 0, no signal -100 | GFP signal change (wild-type ribosome), % (concentration not given with the values);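 active = significant combined selectivity score with lowered wild-type GFP, culture density cut under 30%, mutant RFP and density less affected; inactive = any of these conditions unmet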; note: one replicate is shown; some compounds called inactive have numbers as strong as hits
Vif A3G: inhibitors of Vif binding to APOBEC3G peptide, primary screen, biochemical, TR-FRET, GST-Vif 1-94, biotin-A3G peptide, dose response retest (AID 1117319) | inhibition, %, or IC50 in µM where a hit was titrated | TR-FRET GST-Vif / biotin-A3G peptide binding; higher % means a stronger effect; test concentration not given here; strong numbers were not always called active | actives 0.57% (n = 260,000);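 active = above the screen mean plus three standard deviations and confirmed in dose response; inconclusive = results disagree or hit not tested in dose response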;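 note: Vif residues 1-94 fused to GST binding biotinylated APOBEC3G peptide 110-148; 0% = full assay without inhibitor and 100% = GST in place of GST-Vif; retest series ran down from 100 µM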
Ecoli rRNA inh OD600: recorded beside Ecoli rRNA inh, whose call it bears; OD600 change, %; measured here: OD600 growth;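 optical density of the mix in the first replicate; 0 = DMSO median and -100 = no signal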
Ecoli rRNA inh RFP: also measured in Ecoli rRNA inh; calls as there; RFP signal change, %; measured here: RFP humanized mutant strains;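 first replicate; 0 = DMSO median and -100 = no signal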
* marks the source's active call; other numbers are inactive results; i = inactive; ? = inconclusive; · = no result given. Not all compounds are listed; count on the stated rates, not on these rows.

SMILES	MLL AF4-AF9 inh	ALR H2O2 inh	HNF4A DNA FP	E coli growth	FGF22 binding	Ecoli rRNA inh	Ecoli rRNA inh OD600	Ecoli rRNA inh RFP	Vif A3G
O=C(c1ccc(Cl)s1)N1CCCC1	·	-2	-0.3	0.63	·	·	·	·	11%
CCOC(=O)c1c(S(=O)(=O)N2CCN(C)CC2)c(C)n(C)c1C	0.2	3	-0.7	0.72	i	2	3	-2.2	-2%
CC(NC(=O)COC(=O)/C(=C/c1cccs1)c1cccs1)c1ccccc1 (configuration not stated)	6.4	·	0.6	0.75	i	-34	-28	-2.6	?
Cc1ccccc1NC(=O)C1CCCN(S(=O)(=O)c2cnc[nH]2)C1 (configuration not stated)	-1.6	-13	3.7	0.74	i	6	1	-0.5	-5%
CCOC(=O)c1nn(-c2cccc(Cl)c2)c2nc(CC(C)C)c(C#N)c(=O)n12	·	-11	-2.6	0.64	·	·	·	·	-1%
COc1ccc(OC)c(N/C(C)=C/C(=O)c2ccccc2)c1	·	25	2.2	0.72	·	·	·	·	-2%
CC(=O)NC1C(OCc2ccccc2)OC(COC(C)=O)C(OC(C)=O)C1OC(C)=O (configuration not stated)	-2.2	-7	1.7	0.7	i	·	·	·	4%
CCOC(=O)N1CCN(c2c(NCc3cccs3)c(=O)c2=O)CC1	-1.7	-16	-0.8	0.75	i	6	12	0.9	-1%
Cc1onc(-c2ccccc2)c1C(=O)Nc1nnc(N2CCCCCC2)s1	3.1	6	1.0	0.74	i	-15	-28	-16	3%
CCOC(=O)C1CCCN(C(=O)c2ccc([N+](=O)[O-])cc2)C1 (configuration not stated)	·	-15	-3.1	0.72	·	·	·	·	5%
Cc1onc(-c2ccccc2Cl)c1C(=O)Nc1ccc(S(=O)(=O)Nc2nccs2)cc1	2.4	1	-0.6	0.7	i	-42	-57	1.5	·
CC(=O)Nc1cccc(-c2cc(NC(C)=O)c3ncc(-c4ccc(C(C)=O)cc4)n3c2)c1	-0.6	·	5.7	·	i	0	3	0.0	·
O=C(C[C@@H]1C=C[C@H](NC(=O)Nc2ccccc2F)[C@H](CO)O1)NCc1ccc(-c2ccccc2)cc1	-14	·	·	·	i	-12	-50	7.8	·
CCN=C1SCC(=O)N1c1ccc(OC)cc1	·	-20	-4.2	0.72	·	·	·	·	14%
COc1ccc(-c2nnc(SCC(=O)NCCC(C)C)nc2-c2ccc(OC)c(OC)c2)cc1OC	-1.2	-6	1.0	0.68	i	-2	4	4.7	3%
COCC(=O)N1CC2(CN(C(=O)NC(C)C)C2)c2c(n(C)c3cc(OC)ccc23)[C@@H]1CO	-4.4	·	·	·	i	1	-10	-0.7	·
CC(Cc1c[nH]c2ccccc12)C(=O)NCc1ccco1 (configuration not stated)	0.7	·	-10	0.67	i	8	17	-1.0	33µM*
CC(C)CC(=O)N1CC(C)N(C(=O)CC(C)C)CC1C (configuration not stated)	-2.4	-10	·	0.68	i	17	6	-3.4	-7%
CCOc1ccc(Br)cc1CSC(=N)N	·	98*	0.1	0.64	·	·	·	·	·
CCOc1cc(C(=O)Nc2nnc(S(=O)(=O)N3CCOCC3)s2)cc(OCC)c1OCC	-2.2	5	2.5	0.69	i	-9	-19	-2.6	·
CC(=O)c1c(C)[nH]c(C(=O)Nc2cccc(C#N)c2)c1C	-2.2	-1	0.5	0.68	i	-1	-6	1.1	·
COc1ccc(C(=O)Nc2ccc(C)cn2)cc1S(=O)(=O)N1CCCc2ccccc21	-15	·	0.4	0.68	i	-13	-15	3.8	6%
COc1ccc(CNC(=O)C/C(C)=N/NC(=O)c2ccccc2OC)cc1	-0.3	2	4.2	·	i	7	7	1.8	1%
COc1ccccc1C(=O)Nc1ccc(S(=O)(=O)N2CCC(C)CC2)cc1	0.6	-8	-2.4	0.7	i	-2	3	2.9	·
Cc1ccc(S(=O)(=O)Nc2ccc3c(c2)C(=O)N([C@@H](C)CO)C[C@@H](C)[C@@H](CN(C)S(=O)(=O)c2ccc(F)cc2)OCCCC[C@H](C)O3)cc1	-1.0	·	·	·	i	-2	2	-1.3	·

Individual results from the results shown:
Entry of `Cc1ccccc1NC(=O)C1CCCN(S(=O)(=O)c2cnc[nH]2)C1` (configuration not stated) in Ecoli rRNA inh RFP: -0.5
Entry of `CCOC(=O)C1CCCN(C(=O)c2ccc([N+](=O)[O-])cc2)C1` (configuration not stated) in HNF4A DNA FP: -3.1
Entry of `COc1ccc(CNC(=O)C/C(C)=N/NC(=O)c2ccccc2OC)cc1` in Vif A3G: 1%

(more compounds)
SMILES	MLL AF4-AF9 inh	ALR H2O2 inh	HNF4A DNA FP	E coli growth	FGF22 binding	Ecoli rRNA inh	Ecoli rRNA inh OD600	Ecoli rRNA inh RFP	Vif A3G
CC(C)(C)NC(=O)CN(C(=O)CS(=O)CC(=O)Nc1ccc(F)cc1)c1ccccc1F (configuration not stated)	-1.7	-17	1.0	0.65	i	1	12	4.0	-5%
CC(=O)Nc1ccc(SCC(=O)Nc2sccc2C#N)cc1	-0.2	99*	4.8	0.69	i	13	-2	4.6	-10%
COc1cc(C)ccc1OC(C)C(=O)Nc1ccc(N2CCCCC2)cc1 (configuration not stated)	0.0	23	-2.9	0.67	i	9	12	7.6	·
CC(C)(C)NC(=O)NC(=O)COC(=O)c1cccc(S(=O)(=O)N2CCCCC2)c1	·	-1	3.4	0.7	·	·	·	·	1%
O=S(=O)(c1ccccc1)N1CCN(c2nnnn2-c2ccccc2)CC1	·	2	-1.9	0.72	·	·	·	·	?
CC(C)(C)C1CCc2c(C(=O)NNC(=O)CCCC(=O)O)csc2C1 (configuration not stated)	·	-10	3.9	0.65	·	·	·	·	4%
CCOC(=O)C1(Cc2ccccc2C)CCCN(C(=O)CN2CCCCC2=O)C1 (configuration not stated)	-4.7	·	-0.8	0.67	i	0	7	6.2	·
CCNC(=O)Nc1ccc2c(c1)C(=O)N(C)[C@@H]1CC[C@H](CC(=O)N[C@@H](C)c3ccccc3)O[C@H]1CO2	-1.4	·	·	·	i	2	4	-1.6	·
Cc1cc(C)n2nc(SCC(=O)N3CCC(C)CC3)nc2n1	0.0	-1	-4.4	0.7	i	17	9	1.6	-1%
CN(C(=O)Cn1c(Cl)nc2c1c(=O)n(C)c(=O)n2C)C1CCS(=O)(=O)C1 (configuration not stated)	2.9	·	-4.9	0.66	i	7	5	-0.9	-2%
CC1(Cc2ccccc2Cl)C(=O)Nc2ccc(OC(F)(F)F)cc21 (configuration not stated)	0.5	·	-1.4	·	i	-59	-81	-20	·
COc1ccc(C(=O)NCC(=O)NCC(=O)OCc2ccc(Br)cc2)cc1	-2.2	-3	3.2	0.67	i	6	5	-5.2	-2%
Cc1cc(C)c[n+](CC(=O)c2ccc(-c3ccccc3)cc2)c1	1.4	4	0.3	0.67	i	·	·	·	-3%
CCOC(=O)c1[nH]c(C)c(/C(C)=N\O)c1C	-18	·	3.6	·	i	6	4	-4.1	·
COc1ccc(NC(=O)N(C)C[C@@H]2Oc3ncc(C#C[C@H](C)O)cc3C(=O)N([C@@H](C)CO)C[C@@H]2C)cc1	-2.6	·	·	·	i	3	-4	-2.4	·
Cc1ccc2nc(N3CCN(C(=O)CCC(=O)O)CC3)nc(-c3ccccc3)c2c1	-4.7	11	7.2	0.67	i	-3	-8	-0.7	2%
CCOc1ccc(NC(=O)N2CCN(CC)CC2)cc1	·	-5	1.9	0.68	·	·	·	·	-3%
O=S(=O)(c1ccccc1)c1nc(-c2ccccc2)oc1N1CCCC1	0.6	-8	5.4	0.72	·	19	15	3.1	-5%
CN(C)c1ccc(N=c2sc3ccccc3n2C)cc1	·	99*	-1.8	0.67	·	·	·	·	?
COC(=O)c1cc(-c2ccc(Br)cc2)c2c(=O)n(C)c(=O)n(C)c2n1	1.5	-12	-4.7	0.67	i	6	17	3.0	-10%
CCCC[C@@H]1CNCCN1CCc1cccc(F)c1	-2.5	-20	2.4	0.73	i	4	4	-0.4	·
C[C@@H]1CCCCO[C@H](CN(C)C(=O)NC2CCCCC2)[C@H](C)CN([C@H](C)CO)C(=O)c2cc(NC(=O)Nc3ccc(C(F)(F)F)cc3)ccc2O1	-0.9	·	·	·	i	4	12	-3.0	·
COCCNC(=S)N(CCO)Cc1cc2cc3c(cc2[nH]c1=O)OCCO3	-4.2	-144	-1.2	0.68	i	22	17	-0.2	-14%
Cc1cc(C)c(C(=O)COC(=O)Cn2c(C)csc2=O)cc1C	1.7	2	-2.8	0.67	i	-6	-14	3.7	·
COC(=O)[C@]12C[C@H](CC(=O)NCc3ccc(OC)c(OC)c3)C(=O)N(CCC3=CCCCC3)C1=C[C@H](C(C)(C)C)O[C@@H]2C	4.5	·	·	·	i	3	12	-0.5	·

More entries.
SMILES	MLL AF4-AF9 inh	ALR H2O2 inh	HNF4A DNA FP	E coli growth	FGF22 binding	Ecoli rRNA inh	Ecoli rRNA inh OD600	Ecoli rRNA inh RFP	Vif A3G
Cc1c(Cl)c([N+](=O)[O-])nn1CC(=O)N1CCN(Cc2ccccc2)CC1	-0.1	-4	-0.2	0.65	i	12	8	4.2	-1%
O=S(=O)(c1cccc(C(F)(F)F)c1)N1CCN(C(=S)NCc2ccco2)CC1	·	-15	5.1	0.73	·	·	·	·	19%
CCCNC(=O)C[C@@H]1CC[C@H]2[C@H](COc3ccc(NC(=O)C4CCCC4)cc3C(=O)N2C)O1	0.3	·	·	·	i	-2	-6	-3.3	·
CCCN1C(=O)c2cc(C(=O)NC3CCCC3)ccc2C1O (configuration not stated)	2.4	-25	-0.4	0.73	i	4	2	-5.6	7%
Cc1cccc(C)c1NC(=O)NN1C(C)CCCC1C (configuration not stated)	0.3	-13	1.5	0.69	i	7	12	-4.8	·
Cc1nc(NS(=O)(=O)c2ccccc2)sc1NC(=O)Nc1ccc(Cl)cc1	4.7	74	0.4	0.72	i	6	-2	1.0	4%
c1csc(-c2nn3cnnc3c3ccccc23)c1	-1.6	·	6.5	0.72	i	1	0	-9.2	-1%
COC(=O)[C@]1(C)N[C@H](CN(C)S(=O)(=O)c2ccc(F)cc2)[C@@H]2C(=O)N(C)C(=O)[C@@H]21	0.9	·	1.1	0.72	i	·	·	·	-7%
COc1ccc(S(=O)(=O)N[C@@H]2CC[C@@H](CCn3cc(C(C)C)nn3)O[C@@H]2CO)cc1	-2.1	·	·	·	i	-1	-8	-2.5	·
O=C1C(=Cc2cccs2)Oc2ccccc21	10	·	1.6	0.68	·	-19*	-3.1*	-4.7*	-8%
CC(C)(C)c1ccc(C(=O)C2CCCN(C(=O)C3CCOCC3)C2)cc1 (configuration not stated)	-0.8	-21	-3.2	0.73	i	-11	-14	0.8	-1%
N#Cc1c(SCC(N)=O)nc2c(c1-c1ccncc1)CCCC2	-2.3	-5	2.2	0.73	i	-1	1	-0.2	1%
COC(=O)CSc1nc2nc(C)c(Br)cc2[nH]1	·	72	4.0	0.65	·	·	·	·	1%
CCOC(=O)CSc1nc2sc3c(c2c(=O)n1-c1ccc(C)cc1)CCN(C)C3	7.5	99*	11	0.65	i	-2	3	1.3	11%
NCCCCCc1cn(CC(=O)NCCCCCCCCCCC(=O)N2CCNCC2)nn1	13	-22	3.9	0.69	i	5	5	3.3	·
C[C@H]1CN([C@@H](C)CO)S(=O)(=O)c2ccc(C#Cc3ccccc3)cc2O[C@@H]1CN(C)C(=O)Nc1ccccc1	3.1	·	·	·	i	-1	10	0.2	·
CC(C)c1nnc(NC(=O)CCC(=O)N2CCN(C3CCCCC3)CC2)s1	-4.0	2	-2.7	0.7	i	-5	4	0.4	-4%
